PKD1 inh – blocks activity of human protein kinase D1; PKD1 kinase fluorescence polarization assay; inhibition, %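 (about 10 µM by stock and volumes)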; 200,000 tested, 0.056% active; AID 797;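 active = inhibition of 50% or more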;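 also: controls were vehicle for no effect and a reference inhibitor for full effect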
Target sequence (Q15139 whole entry, looked up): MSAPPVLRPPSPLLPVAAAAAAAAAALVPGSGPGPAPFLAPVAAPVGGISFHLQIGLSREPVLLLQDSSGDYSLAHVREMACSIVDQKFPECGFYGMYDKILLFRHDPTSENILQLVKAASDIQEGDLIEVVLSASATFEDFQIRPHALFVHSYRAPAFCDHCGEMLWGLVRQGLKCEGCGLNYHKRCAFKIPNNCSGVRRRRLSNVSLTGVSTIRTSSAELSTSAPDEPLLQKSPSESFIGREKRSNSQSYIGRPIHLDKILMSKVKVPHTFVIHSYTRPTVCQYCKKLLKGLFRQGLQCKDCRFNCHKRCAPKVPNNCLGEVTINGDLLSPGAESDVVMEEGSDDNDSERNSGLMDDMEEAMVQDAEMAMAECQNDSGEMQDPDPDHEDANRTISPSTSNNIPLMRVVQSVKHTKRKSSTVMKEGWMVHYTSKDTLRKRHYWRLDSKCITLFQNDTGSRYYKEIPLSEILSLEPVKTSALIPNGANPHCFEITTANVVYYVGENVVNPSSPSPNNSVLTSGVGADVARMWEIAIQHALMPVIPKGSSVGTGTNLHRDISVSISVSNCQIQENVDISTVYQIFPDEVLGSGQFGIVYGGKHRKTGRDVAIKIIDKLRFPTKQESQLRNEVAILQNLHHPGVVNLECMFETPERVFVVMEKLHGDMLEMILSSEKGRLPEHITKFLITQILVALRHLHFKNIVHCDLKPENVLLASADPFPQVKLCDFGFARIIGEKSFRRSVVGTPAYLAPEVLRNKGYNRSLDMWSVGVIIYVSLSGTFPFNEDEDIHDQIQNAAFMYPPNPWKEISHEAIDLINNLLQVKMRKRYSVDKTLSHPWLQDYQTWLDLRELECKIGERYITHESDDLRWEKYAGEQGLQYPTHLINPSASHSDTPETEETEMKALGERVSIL
RGS16-Gao – modulates binding between human RGS16 and Galphao; bead-based flow cytometry RGS16-Galphao binding, fluorescence; actives lie on both sides; 220,000 tested, 0.38% active; binding response (% of control), % at 10 µM; O15492+P09471;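 active = below 25% or above 175%, edge rows of some plates excepted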;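 also: Galphao activated by GDP with aluminum fluoride before binding; 100% = wells without compound and 0% = beads without RGS; some results beyond the cut were filed as inactive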
GALR2 ag – activates the human galanin receptor 2; O43603; GALR2-expressing cells, agonist activation read-out; activation, %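 (tested at 5 µM)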; 140,000 tested, 0.48% active; AID 803;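 active = above mean plus 3 SD of all compounds, about 5% in these data, not always enough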;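 also: 0% = vehicle buffer wells and 100% = reference agonist at full effect; tested in CHO reporter cells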
Insulin prom inh – TRM-6 insulin promoter activity inhibition; 130,000 tested, 0.9% active; TRM-6 cells (human fetal islet line), insulin promoter-eGFP reporter, imaging; reporter expression induced with tamoxifen; inhibition, % at 2 µM; AID 1273;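 active = inhibition above the mean plus 3 SD, with well images judged a real hit on visual review, cut at about 60% in these data, passing the limit was not always enough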
HSV replic up – increases HSV replication in cells; AID 1956; 220,000 tested, 0.005% active; HSV replication augmentation in cells, fold increase; maximum fold increase;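 active = peak rise of 1.5-fold or more in the series; tested in PC3 cells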;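 also: first round at 10 µM; read as green reporter fluorescence; hits show the peak of a series up to 25 µM; 1 = signal of infected wells without compound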
Insulin prom inh cell count – recorded beside Insulin prom inh, whose call it bears; normalized cell count, %; measured here: cell count, toxicity; reference of the scale not given here;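 cells exposed to compound for 48 h; stained nuclei by imaging scaled within each plate; lower means fewer cells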
HSV replic up primary fold – recorded beside HSV replic up, whose call it bears; fold increase; compound at 10 µM; measured here: primary screen fold increase 10 uM; tested in PC3 cells;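 GFP signal in the first replicate; 1 = infected wells without compound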
Active calls of the source: *.

Results for N#CC1=C(O)C(c2ccccc2)n2c1nc(=O)c1ccccc12 (stereo unspecified) ?
PKD1 inh: -7; RGS16-Gao: 79; GALR2 ag: -1.8; Insulin prom inh: -12; HSV replic up: inactive; Insulin prom inh cell count: 98; HSV replic up primary fold: 0.94

How did Cc1sc(NC(=O)CCCC(=O)O)c(C#N)c1C do in these assays?
PKD1 inh: -1; RGS16-Gao: 100; GALR2 ag: -1.0; Insulin prom inh: 0; HSV replic up: inactive; Insulin prom inh cell count: 75; HSV replic up primary fold: 0.87

How did N#C/C(=C\c1ccc[nH]1)S(=O)(=O)c1ccccc1 do in these assays?
PKD1 inh: -9; RGS16-Gao: 103; GALR2 ag: -3.4; Insulin prom inh: -10; HSV replic up: inactive; Insulin prom inh cell count: 127; HSV replic up primary fold: 1

What do the screens show for `Cc1ccc(C2NC(=S)NC3=C2N2CCC3CC2)cc1` (stereo unspecified)?
PKD1 inh: -1; RGS16-Gao: 100; GALR2 ag: -1.1; Insulin prom inh: 15; HSV replic up: inactive; Insulin prom inh cell count: 61; HSV replic up primary fold: 1.1

What do the screens show for `O=C(Nc1nnc(CCc2ccccc2)s1)c1cccs1`?
PKD1 inh: 15; RGS16-Gao: 100; GALR2 ag: -2.4; HSV replic up: inactive; HSV replic up primary fold: 0.96

How did O=C(N1CCCCCC1)N1CCN(C(=O)N2CCCCC2)CC1 do in these assays?
PKD1 inh: 1; RGS16-Gao: 79; GALR2 ag: -1.9; Insulin prom inh: -6; HSV replic up: inactive; Insulin prom inh cell count: 93; HSV replic up primary fold: 0.95

How did O=C(Cc1cccc2ccccc12)Nc1nc(-c2cccc([N+](=O)[O-])c2)cs1 do in these assays?
PKD1 inh: -2; RGS16-Gao: 103; GALR2 ag: -0.4; HSV replic up: inactive; HSV replic up primary fold: 1.1

How did O=C(CSc1nnc(Cc2cccs2)n1Cc1ccco1)Nc1ccc(Cl)cc1Cl do in these assays?
PKD1 inh: -1; RGS16-Gao: 97; GALR2 ag: -0.6; Insulin prom inh: -64; HSV replic up: inactive; Insulin prom inh cell count: 97; HSV replic up primary fold: 0.94

Results for CCNCc1cc(Cl)cc(OC)c1OC(C)C ?
PKD1 inh: -5; RGS16-Gao: 110; GALR2 ag: -1.2; Insulin prom inh: -45; HSV replic up: inactive; Insulin prom inh cell count: 49; HSV replic up primary fold: 0.93

How did S=C(NCCc1ccc(Cl)cc1)Nc1ccc(Cl)cc1Cl do in these assays?
PKD1 inh: -8; RGS16-Gao: 111; GALR2 ag: -0.8; HSV replic up: inactive; HSV replic up primary fold: 0.95

How did c1ccc2c(c1)CCN(c1ncnc3nc[nH]c13)C2 do in these assays?
PKD1 inh: 0; RGS16-Gao: 102; GALR2 ag: -1.3; Insulin prom inh: 50; HSV replic up: inactive; Insulin prom inh cell count: 139; HSV replic up primary fold: 0.87

How did Fc1ccc(CCNC(=S)Nc2ccc(F)c(Cl)c2)cc1 do in these assays?
PKD1 inh: -4; RGS16-Gao: 103; HSV replic up: inactive; HSV replic up primary fold: 0.96

Results for CCc1nnc(NC(=O)C2CC(=O)N(c3ccc(C)cc3)C2)s1 (stereo unspecified) ?
PKD1 inh: -1; RGS16-Gao: 102; GALR2 ag: -1.8; Insulin prom inh: -6; HSV replic up: inactive; Insulin prom inh cell count: 121; HSV replic up primary fold: 0.86

What do the screens show for `CCOC(=O)c1cc2c(N)c(C(=O)c3ccc(Br)cc3)sc2[nH]c1=O`?
PKD1 inh: -3; RGS16-Gao: 104; HSV replic up: inactive; HSV replic up primary fold: 0.98

What do the screens show for `O=C(Cc1ccc(Cl)cc1)NCCN1CCCC1`?
PKD1 inh: 0; RGS16-Gao: 106; GALR2 ag: -3.0; HSV replic up: inactive; HSV replic up primary fold: 0.87

Results for CCCN(CCC)CC(O)COc1ccccc1C(=O)Nc1ccccc1 (stereo unspecified) ?
RGS16-Gao: 97; HSV replic up: inactive; HSV replic up primary fold: 1.1

Results for COC(=O)[C@H](CCSC)NS(=O)(=O)c1ccccc1Br ?
RGS16-Gao: 100; HSV replic up: inactive; HSV replic up primary fold: 1

How did O=C(NCc1cccs1)C1CCN(c2nccs2)CC1 do in these assays?
PKD1 inh: 2; RGS16-Gao: 103; GALR2 ag: -0.8; HSV replic up: inactive; HSV replic up primary fold: 0.98

How did O=C(CSCc1ccc(Cl)cc1)NCc1ccc2c(c1)OCO2 do in these assays?
PKD1 inh: -6; RGS16-Gao: 106; GALR2 ag: -1.7; Insulin prom inh: -40; Insulin prom inh cell count: 94

Results for Nn1cnnc1SCC(=O)Nc1ccc2c(c1)OCCO2 ?
PKD1 inh: 0; RGS16-Gao: 101; GALR2 ag: -3.6; Insulin prom inh: -29; HSV replic up: inactive; Insulin prom inh cell count: 102; HSV replic up primary fold: 0.78

What do the screens show for `O=c1c2ccccc2c(C=Nc2ccc(S(=O)(=O)Nc3ncccn3)cc2)c(O)n1-c1cccc(Cl)c1`?
PKD1 inh: -1; RGS16-Gao: 105; HSV replic up: inactive; HSV replic up primary fold: 0.95

Results for CCOC(=O)c1sc(=S)n(CC)c1NC(=O)C1CC1 ?
PKD1 inh: 1; RGS16-Gao: 102; GALR2 ag: -2.5; HSV replic up: inactive; HSV replic up primary fold: 0.92

What do the screens show for `Cc1nn(CC(=O)Nc2ccc3c(c2)nc2n3CCOC2)c(=O)c2ccccc12`?
PKD1 inh: -2; RGS16-Gao: 147; GALR2 ag: 0.4; Insulin prom inh: 33; HSV replic up: inactive; Insulin prom inh cell count: 64; HSV replic up primary fold: 1.1

What do the screens show for `Cc1ccc(CN=c2c([N+](=O)[O-])nn(-c3ccc(Cl)cc3)n2O)cc1`?
PKD1 inh: -8; RGS16-Gao: 98; Insulin prom inh: -50; HSV replic up: inactive; Insulin prom inh cell count: 102; HSV replic up primary fold: 0.97

What do the screens show for `O=C(COc1ncnc2ccccc12)NCc1ccco1`?
PKD1 inh: -3; RGS16-Gao: 101; Insulin prom inh: -15; HSV replic up: inactive; Insulin prom inh cell count: 142; HSV replic up primary fold: 1

What do the screens show for `COc1cccc(-c2nc3ccccc3s2)c1O`?
PKD1 inh: 0; RGS16-Gao: 102; HSV replic up: inactive; HSV replic up primary fold: 1

Results for COc1cc(/C=C(\NC(=O)c2ccccc2)C(=O)N2CC3CC(C2)c2cccc(=O)n2C3)cc(OC)c1OC (stereo unspecified) ?
RGS16-Gao: 102; HSV replic up: inactive; HSV replic up primary fold: 1

How did Cc1cc(Cl)c2ccccc2n1 do in these assays?
PKD1 inh: -12; RGS16-Gao: 108; GALR2 ag: -3.2; Insulin prom inh: -35; HSV replic up: inactive; Insulin prom inh cell count: 120; HSV replic up primary fold: 0.98

Results for CCOc1cc(C2C(C(=O)OC)=CN(C3CCCC3)C=C2C(=O)OC)cc(Br)c1O ?
PKD1 inh: 3; RGS16-Gao: 105; GALR2 ag: 2.2; Insulin prom inh: -19; HSV replic up: inactive; Insulin prom inh cell count: 70; HSV replic up primary fold: 1.1

How did CCOc1cccc(/C=N/NC(=S)Nc2cc(S(=O)(=O)N3CCOCC3)ccc2N2CCOCC2)c1O do in these assays?
PKD1 inh: -2; RGS16-Gao: 88; GALR2 ag: -0.9; Insulin prom inh: 19; HSV replic up: inactive; Insulin prom inh cell count: 83; HSV replic up primary fold: 0.77

What do the screens show for `O=C(NCc1cccnc1)C(=O)Nc1nccs1`?
PKD1 inh: -8; RGS16-Gao: 100; HSV replic up: inactive; HSV replic up primary fold: 0.86

What do the screens show for `O=C(COC(=O)c1cccc(S(=O)(=O)N2CCc3ccccc32)c1)NC1CCS(=O)(=O)C1` (stereo unspecified)?
PKD1 inh: 2; RGS16-Gao: 99; GALR2 ag: -1.3; Insulin prom inh: -5; HSV replic up: inactive; Insulin prom inh cell count: 78; HSV replic up primary fold: 0.86

What do the screens show for `CNc1ccc(S(=O)(=O)NCC(=O)OCC(=O)Nc2cccc(Cl)c2Cl)cc1[N+](=O)[O-]`?
PKD1 inh: -2; RGS16-Gao: 112; GALR2 ag: -0.8; Insulin prom inh: -19; HSV replic up: inactive; Insulin prom inh cell count: 126; HSV replic up primary fold: 1.1

What do the screens show for `COC(=O)c1ccc(Cn2c(C)cc(C)[n+]2C)o1`?
PKD1 inh: 3; RGS16-Gao: 112; GALR2 ag: 0.2; Insulin prom inh: -33; HSV replic up: inactive; Insulin prom inh cell count: 77; HSV replic up primary fold: 0.91

What do the screens show for `CCOC(=O)C1=C(C)OC(N)=C(C#N)C1c1cc2c(cc1Br)OCO2` (stereo unspecified)?
PKD1 inh: -7; RGS16-Gao: 100; GALR2 ag: -0.1; Insulin prom inh: -45; HSV replic up: inactive; Insulin prom inh cell count: 54; HSV replic up primary fold: 0.85

Results for Cc1c(C(=O)Nc2ccncc2)sc2nc(-c3ccccc3)cn12 ?
PKD1 inh: -4; RGS16-Gao: 103; GALR2 ag: -0.3; HSV replic up: inactive; HSV replic up primary fold: 0.85

Results for NC1=NC2(CCCCC2)N=C(Nc2ccc(F)cc2F)N1 ?
PKD1 inh: 1; RGS16-Gao: 102; GALR2 ag: -3.1; Insulin prom inh: 3; HSV replic up: inactive; Insulin prom inh cell count: 105; HSV replic up primary fold: 1

How did CC(C)n1cnc2c(Nc3cccc(F)c3)nc(NCCO)nc21 do in these assays?
RGS16-Gao: 97; HSV replic up: inactive; HSV replic up primary fold: 0.9

How did CCOc1ccccc1N1CC(C(=O)N2CCc3ccccc32)CC1=O (stereo unspecified) do in these assays?
PKD1 inh: 1; RGS16-Gao: 101; GALR2 ag: -1.3; Insulin prom inh: 33; HSV replic up: inactive; Insulin prom inh cell count: 40; HSV replic up primary fold: 0.99

What do the screens show for `Cc1cc(NC(=O)c2noc3c2CCCC3)nn1Cc1ccc(Cl)cc1`?
PKD1 inh: -2; RGS16-Gao: 104; GALR2 ag: -3.4; HSV replic up: inactive; HSV replic up primary fold: 1.1

What do the screens show for `Cc1ccc(OCC(=O)Nc2ccc(C)c(S(=O)(=O)N3CCCCCC3)c2)c([N+](=O)[O-])n1`?
PKD1 inh: -7; RGS16-Gao: 102; Insulin prom inh: -36; HSV replic up: inactive; Insulin prom inh cell count: 73; HSV replic up primary fold: 0.96

What do the screens show for `CSc1nnc(C)c(=O)n1COC(=O)COc1ccccc1C`?
PKD1 inh: 3; RGS16-Gao: 73; GALR2 ag: -0.2; HSV replic up: inactive; HSV replic up primary fold: 0.87

Results for Cc1nc([N+](=O)[O-])c(Br)n1CC(=O)c1ccc(F)cc1 ?
PKD1 inh: 4; RGS16-Gao: 97; Insulin prom inh: 45; HSV replic up: inactive; Insulin prom inh cell count: 79; HSV replic up primary fold: 0.94

How did CCOC(=O)C(C(=O)OCC)C1CS(=O)(=O)CC1C(C(=O)OCC)C(=O)OCC (stereo unspecified) do in these assays?
PKD1 inh: -2; RGS16-Gao: 102; GALR2 ag: -2.0; Insulin prom inh: -33; HSV replic up: inactive; Insulin prom inh cell count: 124; HSV replic up primary fold: 0.86

Results for CCOC(=O)N1CCC(NC(=O)C2CCN(C(=O)N3CCOc4ccccc43)CC2)CC1 ?
PKD1 inh: -8; RGS16-Gao: 99; GALR2 ag: -1.0; Insulin prom inh: -11; HSV replic up: inactive; Insulin prom inh cell count: 144; HSV replic up primary fold: 0.89

Results for CC(=O)c1cc(C#N)c(N2CCCCC2)nc1C ?
PKD1 inh: -7; RGS16-Gao: 100; HSV replic up: inactive; HSV replic up primary fold: 0.82

What do the screens show for `Cc1noc(C)c1COc1ccc(C(=O)OCC(=O)c2ccc3c(c2)OCCO3)cc1`?
PKD1 inh: 14; RGS16-Gao: 90; GALR2 ag: -0.6; Insulin prom inh: -27; HSV replic up: inactive; Insulin prom inh cell count: 164; HSV replic up primary fold: 0.95

5 records picked at random from those above, as already listed:
Results for COC(=O)[C@H](CCSC)NS(=O)(=O)c1ccccc1Br ?
RGS16-Gao: 100; HSV replic up: inactive; HSV replic up primary fold: 1

What do the screens show for `Cc1noc(C)c1COc1ccc(C(=O)OCC(=O)c2ccc3c(c2)OCCO3)cc1`?
PKD1 inh: 14; RGS16-Gao: 90; GALR2 ag: -0.6; Insulin prom inh: -27; HSV replic up: inactive; Insulin prom inh cell count: 164; HSV replic up primary fold: 0.95

How did CCOc1ccccc1N1CC(C(=O)N2CCc3ccccc32)CC1=O (stereo unspecified) do in these assays?
PKD1 inh: 1; RGS16-Gao: 101; GALR2 ag: -1.3; Insulin prom inh: 33; HSV replic up: inactive; Insulin prom inh cell count: 40; HSV replic up primary fold: 0.99

Results for CCc1nnc(NC(=O)C2CC(=O)N(c3ccc(C)cc3)C2)s1 (stereo unspecified) ?
PKD1 inh: -1; RGS16-Gao: 102; GALR2 ag: -1.8; Insulin prom inh: -6; HSV replic up: inactive; Insulin prom inh cell count: 121; HSV replic up primary fold: 0.86

How did Cc1sc(NC(=O)CCCC(=O)O)c(C#N)c1C do in these assays?
PKD1 inh: -1; RGS16-Gao: 100; GALR2 ag: -1.0; Insulin prom inh: 0; HSV replic up: inactive; Insulin prom inh cell count: 75; HSV replic up primary fold: 0.87

Bioassay records from PubChem BioAssay.
